# Screening results: PubChem, several laboratories
# 26S disassembly: blocks ATP-dependent breakdown of the yeast 26S proteasome; inhibition of disassembly, % (no concentration beside the values); anti-FLAG beads, GFP-proteasome disassembly, flow cytometry; actives 0.2% (n = 24,000);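 active = above 40%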;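 note: plate controls were ATP control with full disassembly for no effect and ATP-gamma-S intact proteasomes for full effect; higher percent means more bead fluorescence retained so stronger block of disassembly; stock transfer was 100 nL into about 10 µL; wells with too few beads may also be inconclusive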
# VCAM-1 rise: enhancers of VCAM-1 display on endothelial cells, cell-based, plate reader, pooled HUVEC, TNFa stimulus (AID 455). HUVEC TNFa-induced VCAM-1 immunofluorescence, plate reader; numbers were filed only for top-ranked candidate wells. actives 0.2% (n = 10,000). augmentation, % at 5 µM;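 active = a compound raising TNF-alpha-driven VCAM-1 surface staining, with its hit status upheld on visual or statistical review; inactive = the rest, including hits rejected on review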;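 note: 0% = TNFa with vehicle and 100% = strongest image-checked hit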
# An asterisk follows results filed as active; i = inactive; . = no result given.
# Start of the data: the first 5 compounds, to show the layout:
SMILES,26S disassembly,VCAM-1 rise
COCCCN1C(=O)c2ccccc2C1C(=O)NC1CCCCCC1 (stereo not given),2.0,.
CCOC(=O)c1c(-c2ccc(C)o2)csc1NC(=O)COC(=O)c1cccs1,0.1,i
Cn1c(Cc2csc(N)n2)nnc1SCC(=O)NCc1ccccc1,0.9,i
COc1ccc(NC(=O)c2cnc3n(c2=O)CCS3)cc1OC,0.4,i
O=C(O)CCCCNS(=O)(=O)c1ccc(Cl)c(C(F)(F)F)c1,1.3,.

# The whole of this part, from the first entry:
SMILES,26S disassembly,VCAM-1 rise
COCCCN1C(=O)c2ccccc2C1C(=O)NC1CCCCCC1 (stereo not given),2.0,.
CCOC(=O)c1c(-c2ccc(C)o2)csc1NC(=O)COC(=O)c1cccs1,0.1,i
Cn1c(Cc2csc(N)n2)nnc1SCC(=O)NCc1ccccc1,0.9,i
COc1ccc(NC(=O)c2cnc3n(c2=O)CCS3)cc1OC,0.4,i
O=C(O)CCCCNS(=O)(=O)c1ccc(Cl)c(C(F)(F)F)c1,1.3,.
CCOc1ccc(CCNC(=O)C2CCN(c3nn4c(=O)cc(C)nc4s3)CC2)cc1OCC,9.0,.
CC12CCC(C(=O)O)(C/C1=N\O)C2(C)C (stereo not given),-0.8,.
COc1ccc(Cn2c(=O)[nH]c3cc(C(=O)NCCCN4CCCCC4)ccc3c2=O)cc1,-0.3,.
COc1ccc(NC(=O)c2cc(-c3cccs3)on2)cc1OC,1.0,.
Cn1c(=O)c2cc(S(=O)(=O)Nc3cccc(F)c3)ccc2n(C)c1=O,-1.9,.
CCS(=O)(=O)n1nc(-c2ccc(Cl)cc2)nc1N,-0.6,.
O=C(NCc1ccco1)C1CCN(c2nnc(-n3cccc3)s2)CC1,-1.9,.

# The list goes on; the last 2 above are carried over.
SMILES,26S disassembly,VCAM-1 rise
CCS(=O)(=O)n1nc(-c2ccc(Cl)cc2)nc1N,-0.6,.
O=C(NCc1ccco1)C1CCN(c2nnc(-n3cccc3)s2)CC1,-1.9,.
CC(NC(=O)c1cccc(N2CCCC2=O)c1)c1ccc2c(c1)OCCO2 (stereo not given),0.5,.
O=C(Cn1nnc(-c2cc(Cl)ccc2-n2cnnn2)n1)N1CCCc2ccccc21,-0.6,i
COC(=O)c1ccccc1NC(=O)c1cc(-c2cccc(OC)c2)on1,1.6,.
CC(=O)c1cc2c(O)c(O)ccc2o1,-1.5,.
CSCCC(N=CC1=C(O)CC(C)(C)CC1=O)C(=O)O (stereo not given),0.5,i
Nn1c(CSc2ccccn2)nc2ccccc2c1=O,0.8,.
CC(=O)c1ccc(NC(=O)C2CCCN2S(=O)(=O)c2ccc(F)cc2)cc1 (stereo not given),0.8,.
COc1ccc(-n2c(Cc3cc(=O)[nH]c(=O)[nH]3)nnc2SCC(=O)N2CCC(C)CC2)cc1,0.6,.
O=C(NCc1ccc2c(c1)OCO2)C1CC(=O)N(CCc2ccccc2)C1 (stereo not given),-0.4,.
COc1ccc(OC)c(NC(=O)CS(=O)(=O)c2ccccc2)c1,1.8,i
CCOC(=O)N1CCC(NC(=O)c2cnn3ccccc23)CC1,-0.9,i
CCOC(=O)C1CCCN(C(=O)c2cn(C)c(=O)c3cc(OC)c(OC)cc23)C1 (stereo not given),0.4,i
Cc1cccc(Cc2c(C)nc3nc(SCC(=O)NCc4ccco4)nn3c2C)c1,-0.1,i
COc1ccc(Nc2nc(N)nc(CN3CCc4ccccc4C3)n2)cc1,-0.1,.
CC(=O)c1c(OCC(=O)O)ccc2c(C)cc(=O)oc12,-3.9,i
CCOC(=O)N1CCC(Nc2nc3ccccc3n3cnnc23)CC1,0.5,i
CCOC(=O)N1CCC(NC(=O)C2CCCN(c3nc4ccccc4o3)C2)CC1 (stereo not given),-1.2,.
C=C(C)CC1N(c2cccc(OC)c2)C(=O)C2C(C(=O)O)C3C=CC21O3 (stereo not given),-0.1,.
CC(C)(C)c1ccc(C(=O)Nc2cnccn2)cc1,-0.7,i
CCOC(=O)Nc1ccc(C(=O)Oc2ccccc2)c(O)c1,-1.1,.
CCN(CC)C(=O)C1CCCc2c1[nH]c1ccc(Cl)cc21 (stereo not given),1.3,i
CC1(C)CC(=O)c2cnc(NC(=O)Cc3ccc(Cl)cc3)nc2C1,-1.2,i
CCC(=O)N1C(C(=O)O)CSC1c1ccc(OC)cc1 (stereo not given),-0.2,.
Cc1ccc(S(=O)(=O)C2(C(=O)N3CCN(C4CCCCC4)CC3)CC2)cc1,-1.8,.
COc1ccc(S(=O)(=O)Nc2ccccc2SC)cc1C,-0.3,i
CCN1CCN(CCNC(=O)C2CCCN(Cc3nc(-c4cccc(Cl)c4)oc3C)C2)CC1 (stereo not given),0.6,.
CCOc1ccc(N(CC(=O)OC)S(=O)(=O)c2ccc(OC)c(OC)c2)cc1,1.0,i
CC1CCc2nn(CC(=O)NCc3ccc4c(c3)OCO4)cc2C1 (stereo not given),-0.8,i
Cc1cc(C)c(C#N)c(Nc2ccc3c(c2)OCCO3)n1,-0.7,.
O=C(C1CC1)N1CCc2cc(Br)cc(S(=O)(=O)N3CCCCCC3)c21,5.8,.
COc1ccc(-n2c(Cn3c(=O)sc4ccccc43)nnc2SCC(=O)N2CCCC2)cc1,1.3,.
CCn1cc(C(=O)NC2CCCCC2)c(=O)c2cc(S(=O)(=O)N(C)C)ccc21,3.0,.
CSCc1nnc(NC(=O)c2ccc(S(=O)(=O)N(CC(C)C)CC(C)C)cc2)o1,1.7,.
CCNC(=O)C1CC(=O)N(Cc2ccc3c(c2)OCO3)C(=Nc2ccc(F)cc2)S1 (stereo not given),-0.5,i
Cn1c(C(=O)O)c(CC(=O)Nc2ccc(F)cc2F)c2ccccc21,1.1,.
Cc1cc(C)n2c(SCC(=O)Nc3ccccc3)nnc2n1,1.5,.
O=C(NCCN1CCCC1)c1ccc2c(=O)n(CCc3ccccc3)c(=O)[nH]c2c1,0.7,.
O=c1c2ccccc2nc2n1CCN2,-0.6,i
COc1ccccc1-n1nc(C(=O)NCc2ccco2)c2ccccc2c1=O,-1.7,.
O=C1CCCc2c1nn(-c1ccccc1)[n+]2[O-],-2.2,i
CC(=O)NC(C)C(=O)OCc1ccc(Cl)cc1Cl (stereo not given),-1.6,i
CCCOc1ccccc1NC(=O)c1ccc(N)cc1,-1.0,i
CCOC(=O)N1CCC(Nc2c(NCCCN(CC)c3cccc(C)c3)c(=O)c2=O)CC1,1.2,.
CCOC(=O)N1CCN(C(=O)c2ccc(N3C(=O)c4ccccc4C3=O)cc2)CC1,-1.2,.
CN(C)C(CNC(=O)NC1CCCCC1)c1cccnc1 (stereo not given),0.1,.
C=CCSc1nnc(Cn2c(=O)sc3ccccc32)n1C,0.2,.
Cc1ccc(-c2nnc3ccc(SCC(=O)NCc4ccco4)nn23)cc1,-0.3,i
O=C(NC1CCCCC1)c1ccc2c(=O)n(CC3CCCO3)c(=O)[nH]c2c1 (stereo not given),2.1,.

# Taken from above.
# `O=C1CCCc2c1nn(-c1ccccc1)[n+]2[O-]` @ 26S disassembly = -2.2
# `CC(=O)NC(C)C(=O)OCc1ccc(Cl)cc1Cl` (stereo not given) @ 26S disassembly = -1.6
# `COc1ccccc1-n1nc(C(=O)NCc2ccco2)c2ccccc2c1=O` @ 26S disassembly = -1.7
# `CCCOc1ccccc1NC(=O)c1ccc(N)cc1` @ 26S disassembly = -1.0

# (next part)
SMILES,26S disassembly,VCAM-1 rise
CCOc1ccccc1Nc1cc(C)nc2nc(C)nn12,1.3,.
O=C1CC(c2ccccc2)NC(=O)N1 (stereo not given),-0.8,i
CCOC(=O)c1sc(C)c2c(=O)n(CC)nnc12,0.5,i
Cc1noc(C)c1S(=O)(=O)NCCCN1CCN(Cc2ccccc2)CC1,-1.6,.
COCCn1c(C23CC4CC(CC(C4)C2)C3)n[nH]c1=S,1.5,i
CC(C)(C)NC(=O)CN(C(=O)CS(=O)CC(=O)Nc1ccc(F)cc1)c1ccc(Cl)cc1 (stereo not given),0.7,i
O=C(NCc1ccco1)c1ccc2c(=O)n(CCC3=CCCCC3)c(=O)[nH]c2c1,-0.1,.
O=C(CN1C(=O)COc2ccccc21)Nc1ccc(F)cc1,-0.5,.
Cn1c2c(c(=O)[nH]c1=O)C(NC(=O)c1ccco1)(C(F)(F)F)C(=O)N2 (stereo not given),1.6,i
CC(=O)n1nc(-c2ccco2)nc1SCc1ccccc1,-0.9,i
CCC(Oc1ccccc1)C(=O)Nc1cc(C)on1 (stereo not given),-0.4,.
CCN(Cc1ccccc1)C(c1ccncc1)c1nnnn1C(C)(C)C (stereo not given),-0.1,i
CCOC(=O)c1[nH]c(C)c(C(=O)Nc2ccc(Cl)cc2)c1C,0.5,i
CCOC(=O)N1CCC(NC(=O)c2cn(-c3ccc(OC)cc3)c(=O)c3ccccc23)CC1,0.9,.
CCCNC(=O)c1ccccc1NC(=O)CN(c1ccccc1OCC)S(C)(=O)=O,1.6,i
c1ccc(CNc2ncnc3ccccc23)cc1,0.7,.
CCN(CC)c1ccc(NC(=O)CN2C(=O)CSc3ncccc32)c(C)c1,-0.5,.
Cc1ccc(Cl)cc1N1CCN(C(=O)C2CCN(c3nnc(-n4cccc4)s3)CC2)CC1,0.3,.
Cc1ccc(-c2noc(CCC(=O)N3CCN(c4cccc(C(F)(F)F)c4)CC3)n2)cc1,0.5,i
COc1ccc(/C=N\n2nnc3ccccc32)cc1,0.2,.
Cc1cccc(CS(=O)(=O)Cc2ccc(C(=O)NCc3ccco3)o2)c1,-0.3,.
O=C(O)C1C2C=CC(O2)C1C(=O)NCc1ccc(Cl)cc1 (stereo not given),0.1,i
CCOC(=O)c1cc2c(=O)n(C)c3ccccc3c2s1,3.7,.
Cc1ccccc1NC(=O)CN1C(=O)COc2ccc(Cl)cc21,2.9,.
CCCCN1C(=O)C(O)(CC(=O)c2ccccc2OC)c2ccccc21 (stereo not given),-0.2,.
Cc1onc(-c2ccccc2Cl)c1C(=O)Nc1cccnc1,1.7,i
COc1cccc(CC(=O)Nn2c(C)nc3ccccc3c2=O)c1,1.7,i
CCc1nnc(NC(=O)c2cc3c(s2)CCCCC3)s1,-1.1,i
CC(C)OC(=O)c1cc(=O)[nH]c2ccccc12,0.0,i
CCN(CC)C(=O)c1sc2nc(-c3cccs3)cc(-c3cccs3)c2c1N,9.3,i
O=C(NCC1CCCO1)c1csc2c1CCCC2 (stereo not given),-0.1,.
COC(=O)NCCOC(=O)N(O)c1ccc(Br)cc1,-3.0,.
O=C(COc1ccc2c(c1)OCO2)NC12CC3CC(CC(C3)C1)C2,-0.9,i
CCOc1cc(/C=N/n2cnnc2)c(Br)cc1O,1.9,.
CCOC(=O)C1CCCN(c2c(NCCCN(CC)c3cccc(C)c3)c(=O)c2=O)C1 (stereo not given),12.4,.
COc1ccc(-c2nc(CS(=O)CC(=O)NCc3ccccn3)c(C)o2)cc1 (stereo not given),-0.2,i
O=C(Nc1c(C(=O)N2CCOCC2)cnn1-c1ccccc1)c1ccco1,-2.5,.
O=C(CCNC(=O)Cn1ccc2ccccc2c1=O)NCCN1CCN(c2ccccc2F)CC1,-0.2,i
O=C(NCc1cccs1)c1cccnc1C(=O)O,1.1,.
Cc1cccc(-c2nc(CN3CCCC(C(=O)NC4CCCC4)C3)c(C)o2)c1 (stereo not given),2.5,i
CC(NC(=O)Cc1cccs1)C(c1cccs1)N1CCOCC1 (stereo not given),0.2,.
COc1oc(-c2ccccc2)nc1C(F)(F)F,1.3,i
CC1CCCCC1NC(=O)c1cc2c(s1)CS(=O)(=O)C2 (stereo not given),1.1,.
COC(=O)C(F)(F)Sc1c(C)[nH]c2ccccc12,2.6,i
COC(=O)c1ccc(S(=O)(=O)NCc2cccc(OC)c2)n1C,-0.6,.
CCOc1ccc2[nH]c(=O)c(CN(CCOC)C(=O)N3CCOCC3)cc2c1,1.3,i
Cc1ccc(-c2nc(CSCC(=O)NCCN3CCN(Cc4ccccc4)CC3)c(C)o2)cc1,2.1,.
COC(=O)c1ccc(NC(=O)CN2CCN(S(=O)(=O)c3cc(Cl)ccc3OC)CC2)cc1,-1.1,.
CCCn1c(OC)nc2c1c(=O)n(C)c(=O)n2C,0.1,i
Cc1nn(Cc2ccc(Cl)cc2)c(C)c1NC(=O)C1CC=CCC1C(=O)O (stereo not given),0.4,.
O=C(NCc1cccnc1)C1c2ccccc2C(=O)N1C1CCCCCCC1 (stereo not given),-0.3,.
COc1ccc(C(=O)N(Cc2ccco2)C(C(=O)NC2CCCC2)c2ccc(O)cc2)cc1OC (stereo not given),1.7,i
Cc1ccc(S(=O)(=O)N(CC(=O)N2CCC(C(N)=O)CC2)c2cccc(C(F)(F)F)c2)cc1,-2.2,i
CCCCNC(=O)c1cnc2n(c1=O)CCS2,-0.4,.
O=c1[nH]c(CN2CCN(Cc3ccccc3)CC2)nc2sc3c(c12)CCC3,2.9,i
COCC(=O)NCCc1nc(-c2ccccc2)cs1,-2.3,.
CC1(C)CC(=O)C2=C(C1)N(CCN1CCOCC1)C1=C(C(=O)CC(C)(C)C1)C2c1cccc(Cl)c1,0.2,.
CCOC(=O)CSc1nnc(CNC(=O)Cc2ccccc2)n1-c1ccccc1OC,-0.1,.
Cc1ccc(CN2C(=O)CCC2C(=O)NCCCN2CCC(C)CC2)cc1 (stereo not given),-1.7,i
Cc1cc(NC(=O)c2noc3c2CCCC3)nn1Cc1ccc(Cl)cc1,-0.4,.
CCOC(=O)N1CCC(NC(=O)C2CCN(C(=O)N3CCOc4ccccc43)CC2)CC1,-0.6,.

# A portion of the library; count on the stated rates, not on these rows.
